UCH37 inh = inhibitors of human UCH37 deubiquitinase, primary screen, biochemical, Ub-AMC cleavage, fluorescence; Ubiquitin carboxyl-terminal hydrolase isozyme L5 (Homo sapiens), Q9Y5K5; purified proteasome/UCH37; inhibition, % (concentration not given with the values); actives 0.33% (n = 330,000); AID 588478, 2011;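 active means mean of two replicates above 20%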;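 further: 0% = compound-free wells with enzyme and 100% = wells lacking proteasome; stock transfer was 100 nL into about 20 µL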
Target sequence (Q9Y5K5 whole entry, looked up): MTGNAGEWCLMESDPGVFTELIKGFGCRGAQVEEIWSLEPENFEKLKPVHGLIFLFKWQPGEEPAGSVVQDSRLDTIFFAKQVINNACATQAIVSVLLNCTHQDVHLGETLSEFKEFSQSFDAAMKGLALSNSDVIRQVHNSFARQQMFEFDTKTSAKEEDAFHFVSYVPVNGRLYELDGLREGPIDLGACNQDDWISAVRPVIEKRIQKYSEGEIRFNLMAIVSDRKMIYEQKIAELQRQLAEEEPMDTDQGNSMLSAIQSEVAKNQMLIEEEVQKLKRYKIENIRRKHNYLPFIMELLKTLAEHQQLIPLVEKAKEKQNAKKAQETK
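Material: human UCH37 enzyme supplied as purified proteasome complex. Measure: % inhibition of Ub-AMC cleavage fluorescence. Medium: pH 7.4 Tris-HCl (50 mM) with ovalbumin, ATP-MgCl2, DTT. Times: 30 min preincubation with enzyme, 25 min cleavage at room temperature. Detection: AMC fluorescence intensity at 355/460 nm.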
AF4-AF9 inh = inhibitors of AF4 peptide binding to AF9, primary screen, biochemical, AlphaScreen, biotin-AF4 peptide, FLAG-AF9, single point. inhibition, % at 10 µM. AID 651704, 2012. Protein AF-9 (Homo sapiens), P42568. actives 0.47% (n = 350,000);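 active means every replicate reaching a set inhibition limit, whatever the replicate mean, cut at about 25% in these data; inconclusive means mean inhibition reaches that limit but some replicates miss it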;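 further: 0% = plate neutral control median and 100% = total signal loss; the record names both 10 and 1 µM as test concentration; the first replicate is given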
Target sequence (P42568 whole entry, looked up): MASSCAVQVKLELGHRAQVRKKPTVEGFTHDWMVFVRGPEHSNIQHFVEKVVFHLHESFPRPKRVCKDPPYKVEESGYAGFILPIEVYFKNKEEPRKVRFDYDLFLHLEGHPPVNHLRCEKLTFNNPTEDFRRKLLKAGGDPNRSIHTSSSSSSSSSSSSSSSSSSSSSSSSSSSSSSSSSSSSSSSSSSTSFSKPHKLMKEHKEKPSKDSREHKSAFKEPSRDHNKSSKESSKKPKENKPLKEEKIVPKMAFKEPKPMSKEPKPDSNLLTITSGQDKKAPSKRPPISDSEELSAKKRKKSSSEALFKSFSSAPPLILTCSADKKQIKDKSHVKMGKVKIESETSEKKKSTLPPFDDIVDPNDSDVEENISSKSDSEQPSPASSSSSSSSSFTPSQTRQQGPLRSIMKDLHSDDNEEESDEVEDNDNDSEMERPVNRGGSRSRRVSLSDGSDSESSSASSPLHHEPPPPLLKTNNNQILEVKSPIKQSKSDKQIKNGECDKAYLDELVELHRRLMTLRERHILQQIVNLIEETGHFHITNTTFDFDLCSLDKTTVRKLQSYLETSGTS
FGF22 binding = binders of human FGF22 protein, primary screen, FGF22 synaptogenesis inhibitor project, biophysical, thermal shift, single point | recombinant FGF22 thermal shift, SYPRO orange fluorescence; percent of sucrose octasulfate shift, DMSO zero | AID 651658, 2012 | calls only at 9.99 µM | Fibroblast growth factor 22 (Homo sapiens), Q9HCT0 | actives 1.5% (n = 340,000);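 active means melting point raised past a set limit in the mean and every replicate; inconclusive means no clear call; three in four hits are not shown here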
Target sequence (Q9HCT0 whole entry, looked up): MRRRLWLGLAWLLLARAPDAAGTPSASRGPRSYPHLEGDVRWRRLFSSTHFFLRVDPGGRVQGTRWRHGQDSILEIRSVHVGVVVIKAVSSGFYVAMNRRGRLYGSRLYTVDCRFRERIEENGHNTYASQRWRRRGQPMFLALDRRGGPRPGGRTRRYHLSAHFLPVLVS
A1 inh = caspase 3/7 activation in MEF A1-2A-BIM cells, primary screen, A1 inhibitor project, cell-based, luminescence, HTS; actives 0.066% (n = 330,000); caspase activation, % (test concentration not listed); Caspase-Glo 3/7 luminescence, 3 h; percent of clofoctol response, vehicle zero; AID 2462, 2010;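 active means over half of replicate activation scores above 10%, or exactly half above 10 with the replicate mean above 10; inconclusive means replicate mean below 10 yet half the replicates above 10; inactive means over half of replicates below 10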;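 further: wells of about 30 µL received 50 nL stock; many hits fall short of the cut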
rRNA inh HTS = reduced GFP signal of wild-type E. coli, primary screen, bacterial rRNA inhibitor project, GFP/RFP fluorescence, OD600, single point; GFP signal change (wild-type ribosome), % (test concentration not listed); actives 1.6% (n = 350,000); E. coli WT GFP vs humanized-ribosome RFP mutants, 24 h; active compounds read low; DMSO median 0, no signal -100;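 active means significant combined selectivity score with lowered wild-type GFP, culture density cut under 30%, mutant RFP and density less affected; inactive means any of these conditions unmet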; further: one replicate is shown; some compounds called inactive have numbers as strong as hits
Ecoli growth = E. coli growth inhibition, primary screen, OD600; Escherichia coli growth, 23 h; active compounds read low; OD600 absorbance (concentration not given with the values); actives 0.21% (n = 330,000); AID 1053175, 2014;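 active means OD600 absorbance below the run mean of sample wells minus 3.6 SD, in any replicate, cut at about 0.56 in these data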;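 further: stock transfer was 300 nL into about 60 µL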
T cruzi repl = inhibitors of intracellular T. cruzi growth, primary screen, luminescence, NIH3T3 host cells. inhibition, % (concentration not given with the values). T. cruzi beta-gal in NIH3T3, 90 h. AID 1885, 2009. actives 1.4% (n = 300,000);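 active means mean inhibition across valid replicates above about 55%, limit read from the data; inconclusive means mean below that limit but half or more replicates reach it; inactive means mean below it, under half of replicates reach it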;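 further: signal also drops with host cell toxicity which is not excluded here; 0% = plate median of DMSO wells and 100% = zero luminescence signal; higher percent means less beta-gal luminescence so fewer parasites; stock transfer was 50 nL into about 50 µL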
Beta apoptosis = inhibitors of cytokine-induced beta cell apoptosis, primary screen, luminescence | AID 435005, 2010 | protection from apoptosis, % (no concentration beside the values) | INS-1E cytokine-induced death, ATP luminescence, 48 h; percent of positive-control rescue, neutral wells zero | actives 0.8% (n = 300,000);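 active means all replicates at 75% or more, or half of them and the mean; inconclusive means half reach 75% but not the mean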;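 further: 0% = cytokine-treated negative control wells and 100% = positive control rescue; higher means more ATP so stronger rescue from cytokine killing; wells of about 40 µL received 100 nL stock; the first replicate is given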
rRNA inh HTS OD600 = further read-out of rRNA inh HTS, marked with its call; OD600 change, %; measured here: OD600 growth;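 optical density of the mix in the first replicate; 0 = DMSO median and -100 = no signal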
rRNA inh HTS RFP = also measured in rRNA inh HTS; calls as there; RFP signal change, %; measured here: RFP humanized mutant strains;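 first replicate; 0 = DMSO median and -100 = no signal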
An asterisk follows results filed as active; i = inactive; ? = inconclusive; · = no result given.

#	structure	UCH37 inh	AF4-AF9 inh	FGF22 binding	A1 inh	rRNA inh HTS	rRNA inh HTS OD600	rRNA inh HTS RFP	Ecoli growth	T cruzi repl	Beta apoptosis
1	O=c1[nH]nc(-c2cccs2)c2ccccc12	-1.9	-0.9	·	0.2	-2	-2	2.4	0.71	-11	6
2	COc1ccc(N2CCN(C3CCCCC3NS(=O)(=O)c3ccc(Cl)cc3)CC2)cc1 (stereo not given)	·	?	i	0.1	-4	-3	3.5	·	15	21
3	Cc1cccc(OCC(=O)NCC(=O)N/N=C/c2ccc([N+](=O)[O-])cc2)c1	·	1.3	i	0.4	16	14	0.3	·	13	0
4	CC(NC(=O)[C@H](C)NC(=O)C1CC(=O)N(c2ccc3c(c2)OCO3)C1)c1ccccc1 (stereo not given in full)	2.0	-2.5	i	0.1	5	14	0.7	0.68	-7	-3
5	CCOc1ccc(-c2nnn(CC(=O)NCc3ccco3)n2)cc1OCC	0.8	·	·	1.1	·	·	·	0.73	-8	-3
6	Nc1c(Cl)cc(C2=NCCn3nc4cc([N+](=O)[O-])ccc4c32)cc1Cl	0.1	11	i	-0.2	-13	6	1.8	·	·	3
7	NCCCC[C@@H](C(=O)N1CCNCC1)n1cc(CCC(=O)O)nn1	2.6	·	i	-0.9	7	13	-2.0	·	-9	14
8	COc1ccc(C2=NOC(C(=O)NCCCN3CCOCC3)C2)cc1 (stereo not given)	1.2	·	·	0.6	·	·	·	0.73	-14	-1
9	CS(=O)(=O)N(CC(=O)NCCSCc1ccccc1)c1ccccc1	3.8	-1.3	i	-0.3	-5	-5	-0.2	0.7	0	-6
10	NC(=O)c1c(NC(=O)C2CCCO2)sc2c1CCCC2 (stereo not given)	0.8	3.6	i	-0.5	3	-5	-5.2	0.73	9	-2
11	O=C(c1ccc(CNS(=O)(=O)c2ccc(Br)cc2)cc1)N1CCCCCC1	0.5	-6.4	i	-0.4	-26	-51	3.0	0.65	15	-5
12	O=C(c1cc(-c2cccc(O)c2)on1)N1CCCCCC1	0.9	0.8	i	-4.1	-34	-45	-6.0	0.64	-8	1
13	CC(C)N(C(=O)[C@H]1C[C@H](CC(=O)NCCN2CCOCC2)C(=O)N2CCc3c([nH]c4cc(-c5ccco5)ccc34)[C@]12C)C(C)C	-15	17	i	·	10	9	1.9	0.68	·	·
14	CCN(C(=O)CCc1nnc2ccc(N3CCC4(CC3)OCCO4)nn12)c1ccccc1	2.7	-1.9	i	0.7	1	-1	-4.4	0.7	2	2
15	CC(=O)Nc1ccccc1C(=O)N1CCN(c2cccc(C)c2C)CC1	5.6	0.0	i	0.8	-3	-2	-3.6	0.69	-27	-4
16	CCN(C1CCCCC1)S(=O)(=O)c1cc2c3c(c1)CCN3C(=O)CC2	2.6	6.1	i	0.4	-2	-3	1.6	0.63	-5	-2
17	COc1ccc(OC)c(NC(=O)CN2C(=O)C3(OCCCO3)c3ccccc32)c1	3.9	-17	i	·	-5	-9	-9.3	0.67	-1	·
18	O=C(NCC1CCCO1)c1cc(-c2ccccc2)nc2ccccc12 (stereo not given)	-3.1	·	i	0.5	10	5	-1.8	0.64	-5	-7
19	O=c1[nH]c(SCC2CCCCO2)nc2ccccc12 (stereo not given)	2.6	·	·	-2.2	·	·	·	0.7	-5	·
20	COC(=O)c1c(NC(=O)COc2ccc(Cl)cc2Cl)sc2c1CC(C)(C)NC2(C)C	-15	-1.3	i	1.8	2	5	0.4	0.69	16	114*
21	C=CCn1c(SCC(=O)NCC)nc2sc3c(c2c1=O)CCC3	6.3	-0.8	i	0.7	5	-5	1.8	0.69	15	·
22	Cc1ccc(S(=O)(=O)Nc2ccc3c(c2)n(C)c(=O)n3C)cc1	-0.7	-5.8	i	0.5	-10	-5	7.0	0.72	-16	-6
23	CC1CC(C)CN(c2oc(Cc3ccccc3)nc2C#N)C1 (stereo not given)	4.8	·	·	0.0	·	·	·	0.7	28	-4
24	O=C(Nc1ccccc1)OCc1cnc(Cl)s1	·	-1.2	i	-1.2	-12	-9	2.4	·	-5	-1
25	CC(C)(C)OC(=O)CNC(=O)c1[nH]cnc1C(=O)NC1CCNCC1	2.3	2.7	i	-0.6	12	10	-2.1	0.71	·	-11
26	O=C(Nc1ccccc1)N(Cc1ccc2c(c1)OCO2)Cc1nc2ccccc2c(=O)[nH]1	5.7	·	·	0.3	·	·	·	0.74	-5	-1
27	O=C(CCn1nnnc1CN1CCOCC1)N1CCC(c2cccc(Cl)c2)C1 (stereo not given)	2.4	-1.7	i	0.1	11	8	1.0	0.7	-9	-1
28	Cc1ccc2c(c1)CCCN2C(=O)c1cc2ccccc2oc1=O	3.5	-1.5	i	-1.3	10	-4	-6.6	0.69	-5	-7
29	COc1ccc(/C=C/C(=O)C23CC4CC(CC(C4)C2)C3)cc1CN1CCOCC1	·	26*	i	-1.5	·	·	·	·	48	-8
30	CC(=O)c1cccc(NC(=O)CN(c2ccc(F)cc2)S(C)(=O)=O)c1	-1.5	·	·	0.0	2	10	0.3	0.76	-14	-3
31	COc1ccc(Br)cc1C(=O)Nc1cccc(NC(=O)c2ccco2)c1	-1.9	·	·	·	·	·	·	0.67	33	9
32	Cc1cccc(OC(C)C(=O)NC2CCS(=O)(=O)C2)c1C (stereo not given)	3.4	·	·	0.1	·	·	·	0.69	-13	-1
33	COC(=O)[C@H](C)N(Cc1ccc(Cl)c(Cl)c1)S(=O)(=O)CCN1CCCC1	2.6	3.5	i	·	-20	-14	8.6	0.69	·	·
34	O=C(COC(=O)c1cc([N+](=O)[O-])ccc1N1CCOCC1)c1ccc(OC(F)F)cc1OC(F)F	4.4	4.7	i	-1.5	1	9	0.4	0.72	5	4
35	COc1ccc(CCc2nnc(CCC(=O)N(C)Cc3ccncc3C)o2)cc1	0.0	0.8	i	0.1	9	2	-0.1	0.71	13	-7
36	O=C(Nc1ccc(C(=O)N2CCN(c3ccccc3F)CC2)cc1)C1=CSCCO1	6.8	3.6	i	1.5	-11	-13	-1.7	0.69	-14	1
37	CCCN1CCN(C(=O)CN2C(=O)COc3ccc(S(=O)(=O)N(CC)CC)cc32)CC1	5.3	-5.4	i	·	7	16	-0.4	0.67	-7	·
38	O=C(NCC(c1ccco1)N1CCc2ccccc21)c1cccc(F)c1 (stereo not given)	4.9	6.7	i	0.5	-6	-34	-8.5	0.67	-7	7
39	CN1CC2(C)OC(=O)C(Cl)=C2CC1c1ccccc1 (stereo not given)	-0.1	·	·	-0.5	·	·	·	0.67	1	1
40	COc1cccc(=O)c2c(C)n(-c3cc(C)cc(C)c3)c(C)c12	6.1	·	·	0.0	·	·	·	0.7	11	-7
41	CCNc1nc(NCC)nc(Oc2ccc(OCc3ccccc3)nn2)n1	3.0	-1.8	i	0.1	9	9	-3.6	0.74	4	1
42	Cc1ccc(Nc2nc(N)nc(CSC(=S)N3CCOCC3)n2)c(C)c1	1.8	10	i	0.6	-10	-15	-13	0.67	-19	1
43	CCOc1ccc(/C(C)=N/N2C(=O)C(CC(=O)Nc3ccc(OC)cc3[N+](=O)[O-])SC2=Nc2cccc(C)c2C)cc1 (stereo not given)	·	0.3	i	0.6	15	3	-2.1	·	-14	10
44	CC(C)CCn1c(O)c(N=NC(=O)Cn2ccc(C(F)(F)F)n2)c2ccccc21	5.6	·	·	1.4	·	·	·	·	17	-19
45	CCCn1c(N2CCN(CC(=O)NCc3cccs3)CC2)nc2ccccc21	5.4	·	·	0.3	·	·	·	0.72	-2	0
46	C[C@@H]1CC=C[C@H]2[C@H]1C(=O)N(Cc1ccccc1)[C@H]2c1ccc(F)c(-c2ccc(N(C)C)cc2)c1	-4.2	9.7	i	1.2	4	10	1.6	·	46	1
47	Cc1ccccc1-c1nc(CN(C)C(C)c2ccon2)c(C)o1 (stereo not given)	0.9	-1.3	i	-0.1	-23	-19	-2.0	0.66	1	-5
48	COc1ccc(C2=NN(CCC(=O)NCc3cccs3)C(=O)CC2)cc1	4.9	-2.5	i	0.0	13	6	-1.5	0.71	-10	3
49	CCn1c(=O)n(CC)c2cc(S(=O)(=O)Nc3cc(C)cc(C)c3C#N)ccc21	2.8	·	·	0.6	·	·	·	0.7	21	0
50	COc1ccc(-c2nnnn2CCc2ccccc2)cc1	4.4	·	·	0.0	·	·	·	0.71	6	6
51	OC(COc1ccc2cc(Br)ccc2c1)CN1CCOCC1 (stereo not given)	4.0	·	·	-1.4	·	·	·	0.66	12	7
52	O=C(O)CC(NCc1ccco1)C(=O)OCCCl (stereo not given)	2.6	1.5	i	0.3	17	8	2.1	0.71	-12	·
53	CCNc1nc(NCC)nc(N(n2cnnc2)S(=O)(=O)c2ccc(C)cc2)n1	2.4	·	·	0.1	·	·	·	0.68	3	-4
54	O=C(Nc1ccc(F)cc1)c1cc(Cl)sc1Cl	0.0	-5.1	·	-2.4	-8	0	-2.3	0.69	·	3
55	CCC(=O)N1CCc2cc(S(=O)(=O)N(CC)c3cccc(C)c3)ccc21	0.7	·	·	-0.1	·	·	·	0.69	7	-3
56	CCSc1nc2c(c(=O)[nH]1)C(c1ccccn1)C1=C(CC(C)(C)CC1=O)N2 (stereo not given)	i	·	·	-0.5	·	·	·	0.73	-1	-1

5 of the compounds above, in transposed form.
33	COC(=O)[C@H](C)N(Cc1ccc(Cl)c(Cl)c1)S(=O)(=O)CCN1CCCC1
34	O=C(COC(=O)c1cc([N+](=O)[O-])ccc1N1CCOCC1)c1ccc(OC(F)F)cc1OC(F)F
35	COc1ccc(CCc2nnc(CCC(=O)N(C)Cc3ccncc3C)o2)cc1
36	O=C(Nc1ccc(C(=O)N2CCN(c3ccccc3F)CC2)cc1)C1=CSCCO1
37	CCCN1CCN(C(=O)CN2C(=O)COc3ccc(S(=O)(=O)N(CC)CC)cc32)CC1

compound no.	33	34	35	36	37
UCH37 inh	2.6	4.4	0.0	6.8	5.3
AF4-AF9 inh	3.5	4.7	0.8	3.6	-5.4
FGF22 binding	i	i	i	i	i
A1 inh	·	-1.5	0.1	1.5	·
rRNA inh HTS	-20	1	9	-11	7
rRNA inh HTS OD600	-14	9	2	-13	16
rRNA inh HTS RFP	8.6	0.4	-0.1	-1.7	-0.4
Ecoli growth	0.69	0.72	0.71	0.69	0.67
T cruzi repl	·	5	13	-14	-7
Beta apoptosis	·	4	-7	1	·

The list is partial (hit frequency here may not be typical).
